gsp agonist: gsp mutant agonism; Potency, µM (doses to about 76.9 µM), without a hit: top-dose activation (cAMP increase), usual class: activators; gsp mutant cells, cAMP HTRF, 30 min; control for the full effect not named in the record; hit rate 0.13% among 340,000; active = well fitted activation curve with a large enough effect; inconclusive = small, poorly fitted or top-dose-only effect, or another doubt; inactive = no such curve, though single readings can be large or run the other way; cell line not stated here;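 also: phosphodiesterase inhibitor Ro 20-1724 added with compounds to block cAMP breakdown; potency is read from the fitted curve at half-maximal effect; nearly all actives have a fitted effect of over 60% in size; about a fifth of the inactives were tested at one dose only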
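Cells in DMEM/10% FBS with G418 were pretreated with compounds in DMSO plus […] (300 uM stock) for 30 min at 37C. cAMP was measured by HTRF (cAMP-d2 plus anti-cAMP antibody-K) after 30 min at room temperature.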
Menin-MLL FL inh: menin-MLL binding inhibition, fluorescein peptide | Fluorescence polarization, fluorescein-MLL peptide displacement from menin | 290,000 tested, under 10 active | AID 1766 | FP activity change, % at 61.4 µM; inconclusive = falling polarisation curve, or a change in total fluorescence; inactive = total fluorescence flat and polarisation flat or rising; no compound was filed as active; the % refers to the polarisation; negative = inhibition;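 also: % of control where 0% means no effect; inhibitors lower the polarisation; unlabelled MLL peptide was the positive control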
ClpP mod: qHTS Assay for Activators of ClpP. ATP-dependent Clp protease proteolytic subunit (Bacillus subtilis (strain 168)), P80244. purified B. subtilis ClpP, FRET peptide cleavage, 20 min. Potency, µM (titrated, usually from 57.5 µM), for the others: top-dose activity change, negative = active. hit rate 1.9% among 340,000. AID 651965, 2013; active = well fitted falling curve with a large enough effect; inconclusive = small, poorly fitted or top-dose-only effect; inactive = no such curve, though single readings can be large or run the other way; also: potency is read from the fitted curve at half-maximal effect; the source files actives as falling curves though it sought activators and does not explain the sign; nearly all actives have a fitted effect of over 65% in size; many hits overshoot -100%
Target sequence (P80244 whole entry, looked up): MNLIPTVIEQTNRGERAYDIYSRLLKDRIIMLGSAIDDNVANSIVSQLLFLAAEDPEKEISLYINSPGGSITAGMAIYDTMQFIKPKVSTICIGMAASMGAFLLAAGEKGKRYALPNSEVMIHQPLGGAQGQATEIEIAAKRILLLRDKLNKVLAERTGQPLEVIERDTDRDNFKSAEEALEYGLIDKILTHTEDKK
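ClpP 10 microg/mL final, pH 8 Tris/KCl buffer with BSA, glycerol, Tween-20; compound pinned in; FRET-FV substrate; RT 20 min; Ex320/Em430; ΔFRET vs ADEP 5.8 microM, DMSO, no enzyme.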
gsp antagonist: gsp mutant antagonism. gsp-mutant cells, cAMP HTRF, 30 min; control for the full effect not named in the record. Potency, µM (doses to about 76.9 µM), without a hit: at the highest dose activity change, negative = inhibition, actives largely listed as inhibitors. hit rate 0.4% among 340,000; active = falling curve of any shape with a large fitted effect; inconclusive = falling curve, mostly with a smaller effect; inactive = flat or rising curve; cell line not stated here;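 also: intracellular cAMP measured with PDE inhibitor Ro 20-1724 present during compound exposure; potency is read from the fitted curve at half-maximal effect; % is scaled to controls: 0 for no effect and ±100 for the full control effect; nearly all actives have a fitted effect of over 65% in size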
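Measurement of cellular cAMP by homogeneous time-resolved fluorescence following a 30 min compound exposure at 37C. The PDE inhibitor […] was present throughout; the assay buffer was DPBS with 0.05% BSA and 0.005% Tween 20.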
TRPV1 potentiator: human TRPV1 potentiation; Q8NER1; TRPV1-expressing cells, Fluo-8 calcium influx, capsaicin EC20 potentiation; host cell line not named in the record; control for the full effect not named in the record; potentiation, % at 8.33 µM; hit rate 0.02% among 320,000; AID 540277; active means potentiation above 80%; inconclusive means 30% to 80%; inactive means below 30%; also: 0% is about no effect
Target sequence (Q8NER1 whole entry, looked up): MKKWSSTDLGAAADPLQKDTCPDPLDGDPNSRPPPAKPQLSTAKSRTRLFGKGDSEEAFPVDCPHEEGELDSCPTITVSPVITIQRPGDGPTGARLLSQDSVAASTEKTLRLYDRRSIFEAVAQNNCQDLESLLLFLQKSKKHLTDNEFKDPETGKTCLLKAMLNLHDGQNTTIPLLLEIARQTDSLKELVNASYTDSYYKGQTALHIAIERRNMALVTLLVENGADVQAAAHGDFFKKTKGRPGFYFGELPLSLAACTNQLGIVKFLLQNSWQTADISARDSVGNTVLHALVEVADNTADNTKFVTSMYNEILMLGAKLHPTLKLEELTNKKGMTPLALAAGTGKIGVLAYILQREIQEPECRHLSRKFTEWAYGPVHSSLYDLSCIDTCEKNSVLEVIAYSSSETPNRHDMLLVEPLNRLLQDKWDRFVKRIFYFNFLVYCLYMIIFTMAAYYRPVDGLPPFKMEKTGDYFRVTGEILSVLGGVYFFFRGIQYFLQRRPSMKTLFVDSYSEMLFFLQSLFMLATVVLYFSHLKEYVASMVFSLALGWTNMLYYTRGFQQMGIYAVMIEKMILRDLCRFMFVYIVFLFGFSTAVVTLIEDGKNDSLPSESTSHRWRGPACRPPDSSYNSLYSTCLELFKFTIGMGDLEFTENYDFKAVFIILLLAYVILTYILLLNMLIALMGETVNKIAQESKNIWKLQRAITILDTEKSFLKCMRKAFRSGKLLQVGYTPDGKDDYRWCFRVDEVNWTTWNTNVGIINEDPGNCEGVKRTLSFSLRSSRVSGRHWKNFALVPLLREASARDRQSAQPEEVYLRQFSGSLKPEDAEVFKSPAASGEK
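Cells expressing TRPV1 were dye-loaded with Fluo-8 and read kinetically: 10 s baseline, 3 min after compound (agonist portion), then 2 min after EC20 capsaicin (allosteric enhancer portion). Calcium-bound dye fluorescence at 480/520 nm.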
D2 potentiator: human D2 receptor positive allosteric modulation. P14416. DiscoveRx D2 beta-arrestin cells, luminescence, 90 min; 100% = 57 uM dopamine signal. potentiation, % (concentration not given with the values). hit rate 0.23% among 360,000; active = potentiation of 50% or more; inconclusive = 30% to 50%; inactive = 30% or less;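 also: compound concentration not given in the record; tested on top of an EC20 dose of dopamine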
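PathHunter D2 cells, attached overnight at 37 deg C, received compound in DMSO plus dopamine at EC20 (50 nM final) for 90 min at 37 deg C. Beta-arrestin recruitment was read as luminescence after 1 h with detection reagent at ambient temperature.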
Sfp inh: inhibitors of Bacillus subtilis Sfp phosphopantetheinyl transferase. Biochemical Sfp PPTase activity, qHTS. AID 1490. Q9F4F7. Potency, µM, for inactives: max response, negative = inhibition, hits mostly inhibitors. hit rate 3.5% among 310,000; active = well fitted inhibition curve with a large enough effect; inconclusive = small, poorly fitted or top-dose-only effect, or another doubt; inactive = no such curve, though single readings can be large or run the other way;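 also: the enzyme is Sfp with the accession as filed and its product quenches rhodamine fluorescence; potency is read from the fitted curve at half-maximal effect; 0% = enzyme reaction without inhibitor and -100% = no enzyme wells; top concentration of the series not given in the record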
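Reaction rates are the 30-min fluorescence difference (ex 525, em 598 nm) in wells containing 15 nM Sfp, 5 uM rhodamine-CoA and 12.5 uM BHQ-2-YbbR at pH 7.6 with 10 mM MgCl2.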
* = called active by the depositor; ? = inconclusive; · = not tested or not shown; & = joins results of further samples; [ ] = dose if it differs, or a comment.

SMILES	gsp agonist	Menin-MLL FL inh	ClpP mod	gsp antagonist	TRPV1 potentiator	D2 potentiator	Sfp inh
CN(C)c1nc(N(C)C)nc(N(C#N)CCOc2ccccc2)n1	8%	-2.1	-1.9%	-9%	-7	-5	-2%
O=[N+]([O-])c1ccc(Cl)c(CN2CCC(O)CC2)c1	-5%	-1.3	-0.9%	1%	?	-6	50µM*
NNC(=O)Cn1c(-c2ccccc2)cc2ccccc21	22%[15.4 µM]	-5.3	-0.4%	7%	21	-6	-3%
CCCn1c(NC(=O)c2ccco2)nc2ccccc21	-43%[inhibitor]	-0.4	-2.2%	-7%	3	5	-1%
Cc1ccc(C(=O)NCCNC(=O)c2ccc(F)cc2)cn1	-10%[15.4 µM]	-0.2	·	8%	8	-10	18%
Cc1cccc(C)c1N(CC(O)Cn1c2ccccc2c2ccccc21)S(C)(=O)=O (stereo not given)	-21%	0.7	-7.0%	-9%	-4	3	9%
COC(=O)c1ccc(C(=O)OC)c(NC(=O)COC(=O)c2ccc(OC)c(OC)c2OC)c1	11%	3.2	?	0%	3	21	5%
CN(C)S(=O)(=O)c1ccc(C(=O)Nc2nc(-c3ccccc3)c(C(=O)c3ccccc3)s2)cc1	-42%[inhibitor]	-0.9	-2.4%	2%	10	11	-3%
COc1cc(NC(=O)Cn2cnc(S(=O)(=O)N3CCCCC3)c2)cc(OC)c1OC	-19%	·	1.9%	17%	-1	-36	7%
COc1ccc(C(=O)NCc2nnc(SCC(=O)Nc3nc4ccc(C)cc4s3)o2)cc1OC	18%	7.8	-3.6%	6%	11	-2	-9%
COc1ccc(Cl)cc1N(CC(=O)Nc1ccccc1C(=O)N1CCOCC1)S(C)(=O)=O	17%	·	0.4%	17%	1	17	12%
CC(C)(C)C1CCC(OC(=O)c2ccncc2)CC1 (stereo not given)	-18%	7.4	-4.2%	8%	-5	6	13%
Cn1nc(C(=O)NCC2CCCO2)c2ccccc2c1=O (stereo not given)	7%	1.6	0.2%	6%	0	0	6%
O=C(CNC(=O)C1CCCCC1)OCc1cc(=O)oc2ccc3ccccc3c12	-13%	2.2	25µM*	3%	-6	-12	4%
CCOc1ccc(C(=O)NC2CCN(CC(=O)NCc3ccccc3)CC2)cc1	4%	-11	·	-1%	-8	-3	10%
CCOC(=O)C1=C(CC)Nc2ccccc2N=C1N	-5%[15.4 µM]	-0.7	-1.0%	2%	4	-11	5%
O=C(CCl)Nc1ccccc1Sc1ccc(Cl)cc1	-22%	2.4	-0.1%	?	-2	-13	-10%
Cc1cc2c(C)nc(N/N=C/c3ccccc3)nc2o1	-5%	2.9	-7.7%	-8%	2	4	2%
CN(C)S(=O)(=O)N(CC(=O)Nc1ccccc1C(F)(F)F)c1ccccc1	·	1.8	·	·	26	·	14%
CCOC(=O)CCCSc1nnc(CCCCCN2C(=O)c3cccc4cccc(c34)C2=O)o1	19%	2.5	28µM*	-9%	-2	1	6%
Cc1ccc2nc(SCC(=O)Nc3ccccc3F)nc(=O)n2c1	40%[15.4 µM]	·	-5.7%	16%	-15	8	·
CCCCc1ccc(-c2nn[nH]n2)nc1	-3%	·	-5.9%	·	·	-14	·
O=c1[nH]c2ccccc2nc1C(Cl)c1ccccc1 (stereo not given)	·	5.0	·	·	0	·	-12%
O=C(N/N=C/C=C/c1ccccc1)c1n[nH]c2c1CCC2	-2%	-1.2	-0.3%	17%	-23	13	7%
COc1cccc(CNCC(=O)N2C(C)CCCC2C)c1 (stereo not given)	-9%	-0.4	-0.7%	11%	20	-7	-11%
COc1ccc(-n2c(C)c(C(C)=O)c(C(C)=O)c2C)cc1OC	-40%[inhibitor]	0.9	0.4%	21%	-7	-11	7%
CNC(=O)c1[nH]cnc1C(=O)N[C@@H](CC(C)C)C(=O)OC(C)(C)C	4%	3.0	2.3%	11%	-20	-4	0%
Nn1c(SCC(=O)Nc2cccc(S(N)(=O)=O)c2)nnc1C1CC1	10%	-4.1	0.8%	10%	5	-45	2%
COc1cc(CN2CC(=O)N(c3ccccc3Cl)C2=S)cc(OC)c1OC	-16%	-2.0	3.3%	35µM*	15	16	-2%
O=C(N[C@H]1C/C=C\C[C@@H](CC(=O)N(CCO)Cc2ccccc2)C(=O)NC[C@H](c2ccccc2)OC1=O)OCC1c2ccccc2-c2ccccc21	·	·	-2.7%	?	·	-17	·
CC(=O)Nc1cccc(C(=O)N(CCc2ccccc2)Cc2ccccc2)c1	-10%	·	-2.3%	-15%	-7	-8	-6%
O=C(COC(=O)CNC(=O)c1ccccc1F)Nc1cccnc1Cl	-26%[15.4 µM]	-0.4	-24%	-13%	?	-10	0%
Cc1c(N=C(N)/N=C(\N)Nc2ccccc2)c(=O)n(-c2ccccc2)n1C	-22%	-0.4	-1.0%	-1%	5	-15	-3%
COc1ccc2sc(N(CCCN(C)C)C(=O)c3ccc(S(=O)(=O)N(C)Cc4ccccc4)cc3)nc2c1	1%	·	-2.6%	-2%	-9	-42	·
CN(C(=O)c1cccc(NC(=O)Cc2ccc(NC(=O)C3CCN(C(=O)c4ccccc4)CC3)cc2)c1)C1CCC1	·	·	0.7%	-11%	·	7	·
CC(=O)Nc1cccc(NC(=O)CSc2nnc(Cc3cccn3C)n2CCc2ccccc2)c1	-10%	6.1	6.0%	-18%	17	-17	3%
COc1cc(C(=O)NC(=S)Nc2ccc3c(c2)OCO3)cc(OC)c1OC	-2%[15.4 µM]	1.0	-6.4%	-26%	4	-6	-18%
CC(C)(C)[C@H]1C=C(C(=O)O)O[C@@H](OCCCCO)C1	·	·	-4.5%	-10%	·	-8	·
CCN(C(=O)c1cccs1)c1nc(-c2ccc(OC)cc2)cs1	1%	4.0	·	-11%	5	-7	?
O=C(CNC1CCCCCC1)c1cccs1	7%	3.2	-2.9%	4%	-12	-45	1%
O=C1N=C(N2CCOCC2)S/C1=C\c1cccs1	-49%[inhibitor]	-1.0	-1.8%	-7%	-6	-9	-2%
COc1cc(OC)cc(C(=O)Nc2sc3c(c2C(N)=O)CCC3)c1	-33%[15.4 µM]	-3.2	·	3%	-10	-3	8%
CN(C)c1ccc(C(=O)OCC(=O)NCCCc2ccccc2)cc1	-9%	-3.7	-2.6%	-11%	-7	-2	10%
Cc1cccc(CSc2nnc([C@@H]3CCCN3)o2)c1	13%[15.4 µM]	21	·	1%	12	-4	-21%
COc1ccc2oc(C(=O)Nc3nnc(C)s3)c(C)c2c1	-7%	·	28µM*	-1%	12	-12	·
O=C1Nc2ccccc2C1Cc1ccc(OC(F)(F)F)cc1 (stereo not given)	-16%	-6.3	-5.6%	5%	-6	-10	23%
Cc1ccccc1CC1(CO)CCCN(C(=O)c2ccccc2N(C)C)C1 (stereo not given)	-1%[15.4 µM]	-7.6	·	-6%	-7	-1	-29%
CCOC(=O)C(=Cc1cn(C)c2ccc(S(=O)(=O)N(C)C)cc12)C(=O)OCC	-13%	-1.8	·	9%	-3	-3	-4%

Sorted by value in gsp antagonist (high to low): some entries from above.
SMILES	gsp antagonist
Cc1cccc(CSc2nnc([C@@H]3CCCN3)o2)c1	1%
COc1ccc2oc(C(=O)Nc3nnc(C)s3)c(C)c2c1	-1%
Cc1ccccc1CC1(CO)CCCN(C(=O)c2ccccc2N(C)C)C1 (stereo not given)	-6%

Next part.
SMILES	gsp agonist	Menin-MLL FL inh	ClpP mod	gsp antagonist	TRPV1 potentiator	D2 potentiator	Sfp inh
CCOC(=O)c1ccc(NC2c3ccccc3C(=O)N2c2ccccn2)cc1 (stereo not given)	-10%	-0.1	-4.2%	0%	16	-4	-21%
COc1ccc(C(C)=O)cc1COC(=O)c1ccc(OCc2c(C)noc2C)cc1	24%	2.4	4.1%	20%	-3	5	?
O=S(=O)(Nc1cccc2cccnc12)c1ccccc1	-6%[15.4 µM]	-0.8&-2.2	·	-4%	-17&-1	-1	4%&2%
CCCCCOC(=O)NCC(O)c1ccccc1 (stereo not given)	-3%	2.4	-2.2%	11%	-1	-2	-4%
COc1cccc(-c2coc3c(C)c4oc(=O)c(CCC(=O)O)c(C)c4cc23)c1	-7%[15.4 µM]	3.8&16	·	?	20	0	-8%&0%
CN(C(=O)c1cccc(S(=O)(=O)N2CCCCC2)c1)C1CCS(=O)(=O)C1 (stereo not given)	-1%[15.4 µM]	·	5.3%	9%	-14	-30	·
C/C(=N\Nc1ncnc2sc(C)c(C)c12)c1ccccn1	3%[15.4 µM]	?	·	-8%	7	20	12%
COc1ccc(N(C(=O)Cc2cccs2)C2C=CS(=O)(=O)C2)cc1 (stereo not given)	-32%[15.4 µM]	4.0	·	-3%	17	3	0%
O=C1c2ccccc2CCC12N=NCC2c1ccc(Br)cc1 (stereo not given)	11%	1.6	-4.6%	-11%	2	10	-2%
COc1ccc(C)cc1N(CC(=O)N1CCCCCC1)S(C)(=O)=O	3%[15.4 µM]	-5.8	-0.7%	-8%	-15	-5	16%
Cc1cc(C)n(CC(O)COCc2ccco2)n1 (stereo not given)	22%	2.6	1.9%	8%	3	-7	-10%
COc1ccccc1CNC(=O)C1CCCN(S(=O)(=O)c2cccs2)C1 (stereo not given)	-33%[inhibitor]	0.1	·	1%	18	-6	4%
O=C1CCN(S(=O)(=O)c2ccc(Br)cc2)CCN1	-6%[15.4 µM]	-1.3	-3.0%	14%	-26	-5	7%
Clc1cccc(OCCN2CCNCC2)c1	0%	5.6	-0.1%	17%	1	-9	-21%
O=C(Nc1cc(S(=O)(=O)N2CCOCC2)ccc1OCC(F)(F)F)c1ccc(N2CCCC2=O)cc1	-14%[15.4 µM]	·	0.7%	-5%	7	-8	·
CN(C)C(=O)N1CCc2ccc([N+](=O)[O-])cc21	-39%[inhibitor]	·	-0.2%	·	·	-14	·
Cc1nn(CC(=O)NC2CCCCC2)c(C)c1[N+](=O)[O-]	2%	·	-1.1%	·	·	-20	·
CC(/C=N/Nc1nc(C)cc(C)n1)=C\c1ccc(C(C)C)cc1	-3%	-0.6	-2.5%	-23%	6	-19	6%
C[C@@H](C(=O)Nc1ccc2ccccc2c1)[C@@H]1C[C@@]1(C)[C@@H](NC(=O)c1cnccn1)c1ccccc1	?	3.1&-0.2	0.6%	-4%	-24	-23	7%&17%

From PubChem
